# Bioassay records deposited in PubChem BioAssay by Broad Institute.
# Tgondii IFNg: T. gondii growth inhibition with IFN-gamma, primary screen, cell-based. 69,000 tested, 3.8% active. Toxoplasma gondii growth in IFN-gamma-treated host cells; active compounds read low; reference of the scale not given here. AID 1259416, 2018. activity change, negative = inhibition, %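 (about 20 µM by stock and volumes)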;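 active = below -70%; inconclusive = fit judged invalid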;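 also: host cells are HeLa cells infected with Toxoplasma gondii; parasite growth read as luciferase light; one replicate is shown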
# Starred values were filed as active, the others as inactive; i = inactive; ? = inconclusive; & = joins results of further samples.
SMILES,Tgondii IFNg
O=C(c1cccc(CC2CCNCC2)c1)N1CCCC1c1ccccn1 (stereo unspecified),2.2
Cc1c(CN2CC[C@H]3CC[C@@H](C2)N3)c(=O)n(-c2ccccc2)n1C,2.0
Cc1c(S(=O)(=O)N2CCC[C@@H]2C(=O)NCCc2csc(-c3ccccc3)n2)cnn1C(F)F,-0.9
Cc1noc(C)c1S(=O)(=O)NCc1ccc2c(c1)CCO2,-10.2
O=C(CN1C(=O)CCc2cc(S(=O)(=O)N3CCCCC3)ccc21)NCc1ccc(Cl)cc1,-49.4
CCCC#Cc1ccc2c(c1)O[C@@H](CN(C)Cc1ccccn1)[C@H](C)CN([C@H](C)CO)S2(=O)=O,?
Cc1ccsc1[C@@H]1CCN(C(=O)c2cccc(OCC(N)=O)c2)C[C@H]1O,2.5
O=Cc1ccc(O)c(O)c1,72.1
C[C@H]1COC2=C1C(=O)C(=O)c1c2ccc2c1CCCC2(C)C,20.5
O=C(NCCc1csc(-c2cccc(F)c2)n1)c1ccc(F)cc1,-62.0
CCCC(=O)Nc1ccc2c(c1)C(=O)N(C)C[C@H](OC)[C@H](C)CN(Cc1ccc(F)cc1)[C@H](C)CO2,26.5
COc1ccc(CN2C(=O)N(CC(C)C)C3(CCN(C/C=C/c4ccco4)CC3)C2=O)cc1,-11.3
CCCNC(=O)C[C@H]1CC[C@@H]2[C@H](COC[C@H](O)CN2C(=O)c2ccc(F)cc2)O1,-11.7
O=C(CNCCS(=O)(=O)N1CCCC1)Nc1ccc(Cl)cc1F,7.0
CN(CCc1ccccc1)Cc1cc2n(n1)CCCNC2,-5.4

# Filtered by structure, the compounds so far with sulfur.
SMILES,Tgondii IFNg
Cc1c(S(=O)(=O)N2CCC[C@@H]2C(=O)NCCc2csc(-c3ccccc3)n2)cnn1C(F)F,-0.9
Cc1noc(C)c1S(=O)(=O)NCc1ccc2c(c1)CCO2,-10.2
O=C(CN1C(=O)CCc2cc(S(=O)(=O)N3CCCCC3)ccc21)NCc1ccc(Cl)cc1,-49.4
CCCC#Cc1ccc2c(c1)O[C@@H](CN(C)Cc1ccccn1)[C@H](C)CN([C@H](C)CO)S2(=O)=O,?
Cc1ccsc1[C@@H]1CCN(C(=O)c2cccc(OCC(N)=O)c2)C[C@H]1O,2.5
O=C(NCCc1csc(-c2cccc(F)c2)n1)c1ccc(F)cc1,-62.0
O=C(CNCCS(=O)(=O)N1CCCC1)Nc1ccc(Cl)cc1F,7.0

# The list continues:
SMILES,Tgondii IFNg
O=C(O)c1ccccc1C1CCN(C(=O)CCCn2cncn2)C1 (stereo unspecified),-36.2
COc1ccc2[nH]cc([C@H]3CC[C@@H](NC(=O)C(C)Cn4nc(C)nc4C)C3)c2c1 (stereo partly specified),29.8
COc1ccc(C#Cc2cccc(-c3nc(C(=O)NCCCN4CCOCC4)cc4c3[C@@H](CCO)N(S(=O)C(C)(C)C)C4)c2)cc1OC (stereo partly specified),23.3
Cc1ncnc2c1CCN(CCN1CCCC1)CC2,-31.5
CCCC#Cc1cnc2c(c1)C(=O)N([C@H](C)CO)C[C@@H](C)[C@@H](CN(C)C(=O)Nc1cc(F)ccc1F)O2,?
CN(CC(=O)Nc1ccc2c(c1)OCO2)Cc1ccccc1,38.8
CCN1CCC2(CN(c3ncccn3)CC23CCN(Cc2cccnc2)CC3)C1=O (stereo unspecified),9.6
CC(C)(C)c1ncc2c(n1)CN(c1nccc(CCC(F)(F)F)n1)C2,5.7
Cc1cnc(N2CCC[C@@H]3CN(S(C)(=O)=O)C[C@H]32)nc1,-12.4
CCOC(=O)N1CCC(NCc2cc(-c3ccco3)on2)CC1,-4.1
CC(C)Cn1cncc1CNC(=O)c1cc(=O)c2ccccc2[nH]1,3.5
CN1CC[C@@]2(CN(C3CCOC3)C[C@H]2c2ccccc2)C1=O (stereo partly specified),1.2
C=CC(=O)Nc1cccc(OC)c1,16.9
CCOc1nc(-c2ccccc2)c2cc(Cl)ccc2n1,420.8
Cc1cccn2c(CC(=O)N3CCC4(CCOCC4)CC3)cnc12,3.7
COc1ccc2[nH]cc(CCNc3ccc(S(=O)(=O)c4ccc(Cl)cc4)nn3)c2c1,37.4
Cc1noc(C)c1C(=O)Nc1ccc(Sc2ccccc2)nc1Sc1ccccc1,-88.8*
O=C(NC1CCc2[nH]c(=O)ccc2C1)N1CCCC1 (stereo unspecified),9.4
Cc1ccc2c(c1C)-n1cccc1C1(CCN(S(=O)(=O)c3ccccc3F)CC1)N2,22.7
COC(=O)c1ccc(C(=O)OC)c(NC(=O)N2CCC3(CC2)Nc2ccccc2-n2cccc23)c1,441.1
O=C(Nc1ccccc1F)N1C[C@H]2[C@@H](c3ccccc31)[C@@H](CO)N2C(=O)Cc1cccnc1,21.4
C/C=C/c1ccccc1[C@@H]1[C@@H](C#N)N(C(=O)CN2CCOCC2)[C@@H]1CO,-6.2
CO[C@H]1CN(C(=O)CCc2ccc3c(c2)OCO3)CC[C@H]1N,-44.7
Cn1cc(-c2cnc(-c3ccccc3)nc2)cc1C(=O)Cc1ccccn1,-24.0
CC(=O)NCC(=O)N1C[C@@H]2OCC(=O)N(CC3CCCC3)[C@H]2C1,-11.4
COCC(=O)NC[C@H]1[C@@H](c2ccccc2)[C@@H](CO)N1C(=O)c1ccccc1,-2.6
CCn1cc(S(=O)(=O)N2CCc3[nH]nc(-c4ccccc4F)c3C2)c(C)n1,33.9
O=C(CSc1nnc(CN2CCOCC2)n1-c1ccccc1)c1ccc2c(c1)CCCC2,-36.7
Cc1occc(=O)c1CC=O,0.8
COc1ccc(CC(=O)NCCc2csc(-c3ccc(C(F)(F)F)cc3)n2)cc1,i
CC(C)(C)c1cc(-c2nnc(-c3cccs3)o2)n(Cc2ccc(F)cc2)n1,-40.4
CN1CC[C@@]2(CN(C(=O)[C@H]3CCCO3)C[C@H]2c2ccccc2)C1=O,153.3
CCN1C(=O)CCc2cc(NS(=O)(=O)Cc3cccc(Cl)c3)ccc21,-34.0
CC(C)NC(=O)C1CC2CN(CCc3ccccc3)CC1O2 (stereo unspecified),0.2
C[C@H](NC(=O)Nc1ccccc1F)C(=O)O,-24.8
COC(=O)c1c(OC)cc2c(c1C)Oc1c(Cl)c(O)c(Cl)c(C)c1C(=O)O2,-44.8
CC(C)N1CCCn2c(nc(CNC(=O)c3nccn3C)cc2=O)C1,-2.7
CN(Cc1nc2ccccc2s1)C(=O)c1cn(CC2CCCCC2)nn1,1.3
COCCC(=O)N1C[C@H]2CCC[C@]2(COc2cccnc2)C1,2.9
CCOc1cc2oc(=O)c3c(c2cc1Cl)CCC3,-1.9
CCN(CC)c1ncnc2c1cnn2CC(=O)NCc1cccc(OC)c1,84.1
Cc1cc(Cl)ccc1NC(=O)Cn1ncc2c(N3CCC(C)CC3)ncnc21,-53.2
c1ccc(-c2nnn3c2COC(CNCc2nccs2)C3)cc1 (stereo unspecified),8.0
CCc1nc(CNC(=O)c2cc(-c3cnn(CC)c3C)on2)no1,-21.8
CCc1ccc(NS(=O)(=O)c2cc3c4c(c2)CCC(=O)N4CCC3)cc1,-10.8
CCOc1cccc(CC(=O)N2CCc3c([nH]c4ccccc34)C2c2ccc(F)cc2)c1OCC (stereo unspecified),-74.9*
Cc1noc(C)c1S(=O)(=O)Nc1ccc(C2CCc3nncn3C2)cc1 (stereo unspecified),-7.6
Cc1ccc(C(=O)N2CCC3(CC2)NC(=O)c2cc(C)ccc2N3C)cc1,171.9
COCCN1Cc2ccccc2C2(CCN(c3ncccn3)CC2)C1,4.1
N#C[C@@H]1[C@H](c2ccccc2-c2cccc(F)c2)[C@H](CO)N1C(=O)CN1CCOCC1,5.9
CC(C)n1cnc2c1C(C(=O)N1CCCC(O)C1)N(C(=O)c1ccccc1)CC2 (stereo unspecified),4.4
Cc1cc2ncn(CCC(=O)Nc3nc(CC(N)=O)cs3)c2cc1C,9.4
CN1C(=O)c2cc(NS(C)(=O)=O)ccc2OC[C@H]2O[C@@H](CC(=O)NCc3ccccc3)CC[C@@H]21,2.3
Cc1ccc(F)cc1NC(=O)C(C)NC(=O)c1cnn2ccn(C)c12 (stereo unspecified),5.2
O=C(CN1C(=O)CSc2cccn2-c2ccccc21)NCCc1c[nH]c2ccccc12,114.5
CN(C)C(=O)c1ccc(-c2ccccc2[C@@H]2[C@H](C#N)N(C(=O)C3CC3)[C@H]2CO)cc1,-10.0
Cn1c(=O)n(CCOc2ccc(Cl)cc2)c2ccccc21,482.4
COc1cc2[nH]c3c(=O)n(CCN4CCOCC4)cnc3c2cc1OC,31.1
CN(C(=O)c1ccc(-c2nnn(C)n2)cc1)C1Cc2ccccc2C1,17.7
CN(C)S(=O)(=O)N1CC[C@H]2OCC[C@@]2(COCc2cccnc2)C1,-5.3
# Remaining list, next part:
SMILES,Tgondii IFNg
Cc1ccc(C(=O)N2CCC3(CC2)Nc2ccc(C)c(C)c2-n2cccc23)cc1C,448.0
Cn1ccc2c(-c3cccc(N4CCNCC4)n3)ccnc21,-11.3
CC(=O)c1ccc(-c2nnc(CCC(=O)N3CCN(c4ccc(C)cc4)CC3C)o2)s1 (stereo unspecified),13.2
Cc1nc(CN2CCCn3nnc(COC(C)C)c3C2)cs1,9.4
COc1ccc(-c2cc3c(=O)n(Cc4nc(-c5ccccc5)oc4C)ccn3n2)cc1,46.2
CC(C)c1cc(CNC(=O)C(C)N2C(=O)c3cccc4cccc2c34)on1 (stereo unspecified),44.5
CC(C)CCN1CCC2(CCCN(c3nncs3)C2)C1 (stereo unspecified),116.4
CCN(CC)C(=O)C1(Cc2cccc(-c3cccnc3)c2)CCN(S(=O)(=O)N(C)C)C1 (stereo unspecified),-1.6
CSc1ccc(C2c3[nH]c4ccccc4c3CCN2C(=O)c2cccc(C)c2)cc1 (stereo unspecified),-114.6*
O=C(c1nc(C2CC2)nn1-c1cccc2cccnc12)N1CCCCCC1,-3.5
CCn1nnc2c1C(COCCN(C)C)CN(Cc1cnn(C)c1)C2 (stereo unspecified),5.6
CC(C)Cc1nn2c(=O)cc(O)nc2s1,13.6
CN1CCCCN2[C@H](CO)[C@@H](c3ccc(-c4ccc(F)cc4)cc3)[C@@H]2C1,8.7
CCN(CC)c1ccc(CN2CCN3C(=O)CNC(=O)C3C2)c(C)c1 (stereo unspecified),4.5
C[C@H](CO)N1C[C@H](C)[C@H](CN(C)C(=O)[C@@H](Cc2ccccc2)N(C)C)OCc2ccccc2-c2c(n(C)c3ccccc23)C1=O,-71.8*
Cc1ccc(-c2cc3c(=O)n(Cc4nc(-c5ccc(Cl)cc5)oc4C)ccn3n2)cc1C,125.8
O=C(C[C@@H]1CC[C@H]2[C@@H](COC[C@H](O)CN2C(=O)Cc2ccccc2)O1)NC1Cc2ccccc2C1,-39.3
COc1cc(-c2ccc3cc[nH]c3c2)cc(OC)c1OC,59.8
COc1ccc(Nc2cc(-n3nc(C)cc3C)nc(-c3ccccc3)n2)cc1,-50.2
COc1ccc(CCC(=O)NCCc2csc(-c3ccc(Cl)cc3)n2)cc1,96.4
Cc1cccc(-c2noc(CNC(=O)c3ccc(C)c(C)c3)n2)c1,-2.5
CC1=C(C(=O)OC(C)C)C(c2cccc([N+](=O)[O-])c2)C(C(=O)OC2CN(C(c3ccccc3)c3ccccc3)C2)=C(N)N1 (stereo unspecified),-66.7
CNc1cc(OC)c(C(=O)N[C@@H]2CCN(Cc3ccccc3)[C@H]2C)cc1Cl,1.7
CC(C)N1CCC2(CC1)OCCN(c1ncccn1)c1ccccc12,2.7
CC(C)Oc1ncnc2c1CCN(S(=O)(=O)c1cccs1)CC2,-55.5
COc1cccc(S(=O)(=O)N2CCn3nnc(COCC4CC4)c3C2)c1,8.0
CC(C)CN1CCC(N2CCC(C(=O)N3CCOCC3)CC2)CC1,-35.0
Cc1cc(NC(=O)COC(=O)C2C3CC4OC(=O)C2C4C3)no1 (stereo unspecified),-4.2
CCCCc1cc(C(=O)NC2CC(=O)N(c3cccc(OC)c3)C2)n[nH]1 (stereo unspecified),5.4
O=c1c2ccccc2oc2ccc(Cl)cc12,150.2

# Gathered by group, those above with a COOH group (2)
SMILES,Tgondii IFNg
O=C(O)c1ccccc1C1CCN(C(=O)CCCn2cncn2)C1 (stereo unspecified),-36.2
C[C@H](NC(=O)Nc1ccccc1F)C(=O)O,-24.8

# More records:
SMILES,Tgondii IFNg
CCOC(=O)C1C(=O)CC(C)(O)C(C(=O)OCC)C1/C=C/c1ccccc1 (stereo unspecified),22.2
COc1ccc(C2CCCN2C(=O)C(C)N2C(=O)C3C4C=CC(C4)C3C2=O)cc1OC (stereo unspecified),24.6
COc1ccc(C2CC(=O)c3cc(OC)c(OC)cc32)cc1OC (stereo unspecified),-34.6
O=C(O)CCn1ncc2c(=O)[nH]cnc21,51.8
NS(=O)(=O)c1cccc(NC(=O)CCc2ccccc2)c1,-24.2
Cc1ccc(S(=O)(=O)NCCNc2nccc(C(F)(F)F)n2)cc1,36.7
Cn1nc(CC2CCN(C(=O)C3CC3(F)F)CC2)n(-c2ccccc2)c1=O (stereo unspecified),-1.5
Cc1cc2c(cc1S(N)(=O)=O)S(=O)(=O)CCC2,7.3&14.6
Cc1c(C(C)NC(=O)c2ccc3nc(C(F)(F)F)[nH]c3c2)cnn1C (stereo unspecified),9.9
CCn1cc2c(n1)CN(Cc1ccc(C)o1)CC2COCC1CC1 (stereo unspecified),-6.5
CC(NC(=O)C12CC3CC(C1)CC(n1cncn1)(C3)C2)C(=O)N(C)C (stereo unspecified),-0.2
COc1cccc(S(=O)(=O)Nc2ccc3c(c2)C(=O)N(C)[C@@H]2CC[C@@H](CC(=O)NCC4CCCCC4)O[C@H]2CO3)c1,-26.4
COc1ccc(OC)c(NC(=O)Nc2ccc(-c3nc(-c4cc(C)ccc4C)co3)cc2)c1,-22.5

# The list is partial. The share of hits here may be higher or lower than overall.
